Vaccinia mCherry – vaccinia inhibition (mCherry reporter); Vaccinia virus mCherry reporter infection, fluorescence; about a quarter of the inactives have no number; Potency, µM (top dose mostly 36.5 µM), inactives show at the top dose activity change, negative = inhibition, most hits filed as inhibitors; 310,000 tested, 0.63% active; AID 720579; active = well fitted inhibition curve with a large enough effect; inconclusive = small, poorly fitted or top-dose-only effect; inactive = no such curve, though single readings can be large or run the other way; tested in A549 cells; further: nearly all actives have a fitted effect of over 35% in size; inactives centre near -10
VACV Venus inh – vaccinia inhibition (Venus reporter) | Potency, µM (titrated, usually from 36.5 µM), for the others: at the top dose activity change, negative = inhibition, usual class: inhibitors | AID 720580 | Vaccinia virus Venus reporter expression, fluorescence | 330,000 tested, 0.46% active; active means well fitted inhibition curve with a large enough effect; inconclusive means small, poorly fitted or top-dose-only effect; inactive means no such curve, though single readings can be large or run the other way; tested in A549 cells; further: nearly all actives have a fitted effect of over 30% in size; inactives centre near -10
Active calls of the source: *; i = inactive; ? = inconclusive; . = not tested or not shown; & = joins results of further samples; [ ] = dose if it differs, or a comment. On the % scale 0 is the no-effect control and ±100 the full control effect; potency means the concentration at half of the fitted maximal effect. Not a hit list, and some 0.86% of all compounds hit somewhere here.

The opening 23 compounds, to show the layout:
SMILES	Vaccinia mCherry	VACV Venus inh
COC(=O)C1=C(c2ccc(F)cc2OCc2ccccc2)C[C@@H]2CC[C@H]1N2C(=O)NCCCc1ccccc1	-6%	?
CCN(CC)c1ccc(NC(=O)CCCOc2cccc(C)c2)cc1	-3%	0%
CCc1ccc(CNC(=O)CN2C(=O)c3cccnc3Oc3ccc(C)cc32)cc1	i	-16%
O=C(NCc1ccccc1)C(=O)NCC1OCCN1S(=O)(=O)c1cccs1 (stereo not drawn)	i	-12%
O=C(Cc1ccc(Cl)cc1)NCCCn1ccnc1	-12%	-18%
C=CCN(C(=O)CSc1nc2ccsc2c(=O)n1Cc1ccc(C(=O)O)cc1)c1ccccc1	-12%	-4%
COCc1nc2sc(C)c(C)c2c(=O)[nH]1	-14%	-8%
CC1(C)CC(=O)C=C(c2ccc(-c3cccc4c3sc3ccccc34)cc2)C1=O	-18%	-20%
COc1ccc(/C=C/C(=O)OCC(=O)Nc2ncc(Cl)cc2Cl)cc1	-5%	-8%
Cc1nn(C(C)c2nc(-c3ccccc3)no2)c(C)c1[N+](=O)[O-] (stereo not drawn)	-13%	-7%
Cc1cc(NC(=O)Cn2cc([N+](=O)[O-])cn2)n(Cc2ccc(F)cc2)n1	0%	-3%
COc1ccc(C(O)c2nc(-c3cccc4cccnc34)cs2)cc1 (stereo not drawn)	i	-8%
CCCCNC(=O)c1onc(CSc2ccccc2CC)c1C(=O)O	i	2%
N#CC1=C(N)Oc2cc(O)c(C=Nc3ccccc3)cc2C1c1ccccc1 (stereo not drawn)	-15%	-7%
O=C(Nc1cc(Sc2ccccn2)cc([N+](=O)[O-])c1)c1cccc(Cl)c1	i	?
COc1ccccc1C1NC(=O)NC(C)=C1C(=O)OCC1CCCCC1 (stereo not drawn)	-6%	-23%
O=C(OCc1ccc(F)cc1)c1cc(=O)c2ccccc2o1	3%	7%
Cc1nc(Nc2ccc(S(N)(=O)=O)cc2)oc1C	i	-8%
CC(=O)OC1C[C@]2(C)C(C(C)=O)CCC2C2CCC3=CC(=O)CC[C@@]3(C)C12 (stereo partly drawn)	-14%	-7%
CCN(c1ccc(NC(=O)COC(=O)C(C)N=C2NS(=O)(=O)c3ccccc32)cc1)C(C)C (stereo not drawn)	?	-3%
CCCCN(C)c1c(C)nc2ccc(C(=O)N(C)Cc3ccco3)cn12	i	-5%
CN(C)S(=O)(=O)c1ccc(C(=O)Nc2ccccc2C(=O)O)cc1	.	-6%
CCCS(=O)(=O)N1CCCC(C(=O)Nc2ccc3c(c2)CCC3)C1 (stereo not drawn)	-13%	-6%

All compounds of this part, from the first entry:
SMILES	Vaccinia mCherry	VACV Venus inh
COC(=O)C1=C(c2ccc(F)cc2OCc2ccccc2)C[C@@H]2CC[C@H]1N2C(=O)NCCCc1ccccc1	-6%	?
CCN(CC)c1ccc(NC(=O)CCCOc2cccc(C)c2)cc1	-3%	0%
CCc1ccc(CNC(=O)CN2C(=O)c3cccnc3Oc3ccc(C)cc32)cc1	i	-16%
O=C(NCc1ccccc1)C(=O)NCC1OCCN1S(=O)(=O)c1cccs1 (stereo not drawn)	i	-12%
O=C(Cc1ccc(Cl)cc1)NCCCn1ccnc1	-12%	-18%
C=CCN(C(=O)CSc1nc2ccsc2c(=O)n1Cc1ccc(C(=O)O)cc1)c1ccccc1	-12%	-4%
COCc1nc2sc(C)c(C)c2c(=O)[nH]1	-14%	-8%
CC1(C)CC(=O)C=C(c2ccc(-c3cccc4c3sc3ccccc34)cc2)C1=O	-18%	-20%
COc1ccc(/C=C/C(=O)OCC(=O)Nc2ncc(Cl)cc2Cl)cc1	-5%	-8%
Cc1nn(C(C)c2nc(-c3ccccc3)no2)c(C)c1[N+](=O)[O-] (stereo not drawn)	-13%	-7%
Cc1cc(NC(=O)Cn2cc([N+](=O)[O-])cn2)n(Cc2ccc(F)cc2)n1	0%	-3%
COc1ccc(C(O)c2nc(-c3cccc4cccnc34)cs2)cc1 (stereo not drawn)	i	-8%
CCCCNC(=O)c1onc(CSc2ccccc2CC)c1C(=O)O	i	2%
N#CC1=C(N)Oc2cc(O)c(C=Nc3ccccc3)cc2C1c1ccccc1 (stereo not drawn)	-15%	-7%
O=C(Nc1cc(Sc2ccccn2)cc([N+](=O)[O-])c1)c1cccc(Cl)c1	i	?
COc1ccccc1C1NC(=O)NC(C)=C1C(=O)OCC1CCCCC1 (stereo not drawn)	-6%	-23%
O=C(OCc1ccc(F)cc1)c1cc(=O)c2ccccc2o1	3%	7%
Cc1nc(Nc2ccc(S(N)(=O)=O)cc2)oc1C	i	-8%
CC(=O)OC1C[C@]2(C)C(C(C)=O)CCC2C2CCC3=CC(=O)CC[C@@]3(C)C12 (stereo partly drawn)	-14%	-7%
CCN(c1ccc(NC(=O)COC(=O)C(C)N=C2NS(=O)(=O)c3ccccc32)cc1)C(C)C (stereo not drawn)	?	-3%
CCCCN(C)c1c(C)nc2ccc(C(=O)N(C)Cc3ccco3)cn12	i	-5%
CN(C)S(=O)(=O)c1ccc(C(=O)Nc2ccccc2C(=O)O)cc1	.	-6%
CCCS(=O)(=O)N1CCCC(C(=O)Nc2ccc3c(c2)CCC3)C1 (stereo not drawn)	-13%	-6%
O=C(NNC(=S)NC1CC2C=CC1C2)c1cccnc1 (stereo not drawn)	i	-3%
COc1cccc(-c2ccnc3c(-c4ccc(F)cc4)c(C)nn23)c1	-25%	-20%
CC(Oc1cccc(Cl)c1)C(=O)NNC(=O)c1cccnc1 (stereo not drawn)	-5%	-19%
CCCNc1nc2c(c(=O)[nH]c(=O)n2C)n1Cc1cccc(Br)c1	-13%	5%
CCc1ccc(/C=C2/SC(N3CCOCC3)=NC2=O)cc1	i[7.34 µM]	-9%[7.34 µM]
O=C(Nc1ccccc1)OCC(CN1CCCCC1)OC(=O)Nc1ccccc1 (stereo not drawn)	-18%	-9%
Cc1cccc(NC(=O)c2cccc(NS(=O)(=O)c3ccc(Cl)cc3)c2)c1	.	-16%
NC(=O)Nc1ccc2c(c1)OCCO2	3%	5%
O=C1c2ccccc2-c2c1cccc2C(=O)N1CCOCC1	.	-6%
Cc1ccc(-n2cc(C(=O)c3ccc4ccccc4c3O)cn2)cc1	6%	-1%
FC(F)(F)c1cc(Cl)c2nnc(-c3cccnc3)n2c1	-16%	-22%
Cn1cc(C(=O)OCC(=O)Nc2ccccc2Cl)c2ccccc21	-16%	-8%
Cc1ccc2nc(C3CCCN(C(=S)Nc4cccc(C)c4C)C3)[nH]c2c1 (stereo not drawn)	?	?
CN1CCN(NC(=O)CN(C)S(=O)(=O)c2cc(Cl)ccc2Cl)CC1	i	-3%
COc1ccc([C@H]2CC(=O)C=C(c3ccc4c(c3)OCO4)C2)cc1OC	-21%	-30%
COc1ccc(CNC(=O)C2Cc3c(-c4cccc(C(C)=O)c4)ccnc3O2)cc1OC (stereo not drawn)	-28%	-26%
Cc1ccc(NS(=O)(=O)c2cc3c4c(cccc4c2)C(=O)NC3=O)cc1C	13µM*	10µM*
CC(C)NC(=O)NC(=O)CSc1nnc(COc2ccccc2Cl)o1	.	-9%
Cn1c(-c2ccc(N)cc2)nc2ccccc21	-15%	-16%&-13%
CC(C)NC(=O)c1ccc(S(=O)(=O)N(C)C)cc1	-14%	-11%
CN(C(=O)CO/N=C/c1ccc(Cl)cc1)c1ccccc1	-9%	-5%
CCc1cccc(C)c1NC(=O)c1ccc(CN2CCc3ccccc3C2)cc1	-26%	-29%
Cc1ccc(CNC(=O)CN(c2cc(C)cc(C)c2)S(=O)(=O)c2c(C)noc2C)cc1	i	-13%
COc1ccc(-c2coc3c(C(=O)NCC4CC4)cccc23)c(C)c1	10%	-21%
CC(C)C(=O)Nc1nc2cc3c(cc2s1)OCO3	?	-4%
C[C@@H]1CCC2[C@](C)(CO)C(O)CC[C@@]2(C)[C@@]12CC[C@](CO)(CCO)O2 (stereo partly drawn)	-1%	0%
CCOC(=O)C1(CCCc2ccccc2)CCN(C(=O)c2cnn(CC)c2)CC1	i	-14%
O=C(NCC(=O)N1CCN(c2ccccc2F)CC1)c1ccco1	7%	6%
CC1=C(C(N)=O)C(c2ccc(F)cc2)n2nc(-c3ccccc3Cl)nc2N1 (stereo not drawn)	-2%	-4%
Cc1ccc(CNC(=O)Cn2c(=O)n(-c3ccccc3)c(=O)c3c2c2cc(C)ccc2n3C)cc1	1%	-5%
CCC(C(=O)NC1CCC(C)CC1)n1nc(C)c2sc3ccccc3c2c1=O (stereo not drawn)	-21%	-21%
COc1ccc(-c2[nH]ncc2C(=O)NCc2cccc(Cl)c2)cc1	-13%	-20%
O=C(C1CCCN(S(=O)(=O)c2ccc(Cl)cc2)C1)N(Cc1cccs1)C1CC1 (stereo not drawn)	-18%	-25%
O=C(CSc1oc(-c2ccco2)nc1S(=O)(=O)c1ccc(Br)cc1)c1ccc(Cl)cc1	-12%	-17%
COc1ccc(CC(=O)N2CC(=O)Nc3ccc(Br)cc3C2c2ccc(F)cc2)cc1OC (stereo not drawn)	-14%	-8%
O=C(CNC(=O)c1ccc(Cl)cc1Cl)OCCOc1ccccc1F	-14%	-10%
O=C(CSc1nnc(NC(=O)c2ccccc2[N+](=O)[O-])s1)NCc1ccco1	i	-5%
Remaining list, next part.
SMILES	Vaccinia mCherry	VACV Venus inh
COCCCNC(=O)C1CCC(=O)N1Cc1ccccc1Cl (stereo not drawn)	.	-16%
Cc1cc(C)cc(NC(=O)CN2C(=O)c3ccccc3Sc3ccc(C(=O)N4CCCC4)cc32)c1	-14%	-21%
CCCN(CCC)C(=O)CC(c1ccccc1)c1cc(Br)ccc1O (stereo not drawn)	?	?
FC(F)(F)c1cccc(CNC(=S)Nc2ccccc2)c1	i	-8%
COC(=O)Cc1c(C)c2ccc(OCC(=O)N3CCCC3)c(C)c2oc1=O	-6%	-18%
CN(C(=O)c1ccc(Cl)cc1)C1=CCCCC1CCC#N (stereo not drawn)	.	-9%
O=C(c1cc(COc2c(F)cccc2F)on1)N(Cc1ccccc1)CC1CC1	-2%	-15%
NC(=O)C1CCN(C(=S)NCCc2ccccc2)CC1	i	-5%
COc1ccc(OC)c(NC(=S)NCCC(c2ccccc2)c2ccccc2)c1	?	?
COc1ccccc1CNc1nc(NCCOc2ccccc2)c2sccc2n1	-23%	-15%
CC(=O)c1ccc(S(=O)(=O)N2CCCC(N(C)CCc3ccccc3)C2)cc1 (stereo not drawn)	0%	-18%
COc1cc(C(=O)Nc2ccccc2-c2nc(-c3ccccc3)no2)cc(OC)c1OC	-22%[7.34 µM]	-20%[7.34 µM]
CCOC(=O)Cc1c(C)c2c(C)[nH]nc2oc1=O	.	-3%
CCOC(=O)C1C(=O)C(=O)N(C2CCCCC2)C1C(=O)OCC (stereo not drawn)	-2%	-4%
CCOc1cccc(C(=O)NC(=S)Nc2ccccc2)c1	-17%	-5%
CCC(C)(C)NC(=O)CN(C(=O)c1snc(C(N)=O)c1N)c1ccc2c(c1)OCCO2	-23%	-16%
CCCNC(=O)C1CCN(c2cc(C)nc3c(-c4ccc(OC)c(OC)c4)c(C)nn23)CC1	-16%	-7%
COc1ccc(CCNC(=O)C2COc3ccccc3C2)cc1OC (stereo not drawn)	-12%	-6%[7.34 µM]
CCn1cc(S(=O)(=O)Nc2cc(C)ccc2F)cn1	i	-3%
CC1(C)Cc2c(C#N)c(N)n(-c3ccccc3)c(=O)c2CO1	-6%	-1%
COc1ccc(-c2csc(N3CCC(c4ccccc4)CC3)n2)cc1	i	-1%
CC(=O)c1cccc(NC(=O)C2(C)Cc3c(-c4ccccc4)ccnc3O2)c1 (stereo not drawn)	-17%	-3%
CN(C(=O)c1ccccc1)c1nccnc1C#N	i	-9%
O=C(CSc1nnc(Cc2ccccc2)n1-c1cccc(Cl)c1)NNC(=O)Cc1ccccc1	-16%	-9%
COC(=O)c1ccc2nc(-c3ccc(F)cc3)c(Cc3ccccc3OC)n2c1	17%	8%
CN(C)c1nnnn1-c1ccccc1Oc1ncc(C(F)(F)F)cc1Cl	i	0%
Cc1ccc(/C=C/c2nnc(-c3ccccc3)o2)cc1	i	-9%
Cc1cccc(-n2c(-c3ccco3)nc3ccccc3c2=O)n1	-8%	-1%
